Source: PubChem
Rango complex inh – qHTS Assay for Inhibitors of Rango (Ran-regulated importin-beta cargo) - Importin beta complex formation; Potency, µM (top dose mostly 92.2 µM), inactives show top-dose inhibition of complex formation; AID 540263, 2011; Importin subunit beta-1 (Homo sapiens), Q14974; 340,000 compounds, 0.031% hits; Rango CFP/YFP FRET sensor + importin beta, 45 min; active = rising FRET ratio curve, often small or poorly fitted; inconclusive = mostly compound fluorescence or quenching in the first reads; inactive = flat curves in all reads;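 further: potency means the concentration at half of the fitted maximal effect; 0% = DMSO wells and 100% = buffer wells lacking importin beta; nearly all actives have a fitted effect of over 15% in size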
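FRET biosensor Rango (snurportin 1 IBB between N-terminal EYFP and C-terminal Cerulean), 50 nM in PBS/1 mM DTT/0.02% Tween-20/0.1% BSA, preincubated 5 min RT with compound; 0.125 microM importin beta added, 45 min RT, CFP/YFP FRET ratio read.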
Rango release inh – qHTS Assay for Inhibitors of RanGTP induced Rango (Ran-regulated importin-beta cargo) - Importin beta complex dissociation | Potency, µM (highest dose often 46.1 µM), for inactives: top-dose activity change, negative = inhibition | Biochemical FRET Rango-importin beta, RanGTP-induced dissociation | 340,000 compounds, 0.071% hits; active means falling FRET ratio curve, often poorly fitted, with flat reads before Ran was added; inconclusive means other falling curves, or compound fluorescence or quenching; inactive means flat or rising ratio curve;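 further: potency means the concentration at half of the fitted maximal effect; % of control where 0% means no effect; nearly all actives have a fitted effect of over 45% in size; -100% = wells without RanGTP and RCC1; the record marks most hits as doubtful in a second field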
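Compounds sat 5 min at room temperature with 0.1 uM Rango biosensor plus 0.25 uM importin beta, then FRET pre-read. RanGTP-RCC1 (0.6 uM Ran, 2mM GTP, 0.2 uM RCC1) added for 45 min, and the CFP/YFP post-read measured blocked complex dissociation.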
miR-21 reporter – qHTS Assay for Modulators of miRNAs and/orActivators of miR-21; AID 2288, 2010; Potency, µM (titrated, usually from 38.3 µM), for the others: top-dose reporter change, positive = more light; 340,000 tested, under 10 active; HeLa miR-21 FLuc reporter, luciferase, 48 h; active = well fitted rising curve with a large enough effect; inconclusive = small, poorly fitted or top-dose-only effect; inactive = no such curve, though single readings can be large or run the other way;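 further: % of control where 0% means no effect; miR-21 action dims this reporter so a rising signal means less miR-21 action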
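Luminescence from a firefly luciferase reporter carrying a miR-21 binding site downstream, stably expressed under a CMV promoter in HeLa cells that make miR-21 endogenously, reports miRNA modulation after 48 h compound exposure up to approximately 40uM final.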
GLA inh pH 4.5 – qHTS Assay for Inhibitors of Human alpha-Galactosidase at pH 4.5 | Alpha-galactosidase A (Homo sapiens), P06280 | purified enzyme, 4-MU-alpha-Gal fluorescence, pH 4.5 | activity change, negative = inhibition, % at 105 µM | 230,000 tested, under 10 active; inconclusive = small, poorly fitted or top-dose-only inhibition, or a rising curve; inactive = flat fitted curve, though single readings scatter; no compound was filed as active;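 further: 0% = full activity with enzyme and -100% = basal without enzyme; dose as in the result columns while the protocol names 77 µM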
Target sequence (P06280 whole entry, looked up): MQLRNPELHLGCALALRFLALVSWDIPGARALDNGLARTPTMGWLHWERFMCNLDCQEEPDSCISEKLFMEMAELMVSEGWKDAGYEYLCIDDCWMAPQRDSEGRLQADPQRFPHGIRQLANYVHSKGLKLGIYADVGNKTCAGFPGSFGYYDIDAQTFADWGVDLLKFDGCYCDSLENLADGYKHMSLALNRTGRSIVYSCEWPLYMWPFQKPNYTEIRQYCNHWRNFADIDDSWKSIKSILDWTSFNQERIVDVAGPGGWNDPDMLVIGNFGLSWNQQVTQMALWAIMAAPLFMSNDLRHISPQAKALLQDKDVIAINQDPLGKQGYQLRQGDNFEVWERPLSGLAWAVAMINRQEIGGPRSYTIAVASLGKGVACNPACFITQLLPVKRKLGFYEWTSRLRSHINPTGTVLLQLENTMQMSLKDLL
Starred values were filed as active, the others as inactive; ? = inconclusive; · = no result given; & = joins results of further samples; [ ] = dose if it differs, or a comment. Some of the compounds tested; rates above refer to the full screens.

Compound	Rango release inh	miR-21 reporter	Rango complex inh	GLA inh pH 4.5
Cc1csc(N2CCN(c3cc4c(cc3Cl)nc(-c3ccncc3)n4CCCN3CCCC3)CC2)n1	-14%	3%	?	·
Cc1cc(C)c2nc(N3CCCC(C(=O)N4CCC(C(N)=O)CC4)C3)sc2c1 (centres undefined)	-10%	-8%	-0.9%	2
Cc1ccc(C(=O)N2CCNC(=O)C2CC(=O)Nc2ccc(F)cc2)cc1C (centres undefined)	-18%	-3%	-0.1%	·
CC(Oc1ccccc1)C(=O)OCC(=O)NC(=O)NCc1ccco1 (centres undefined)	-8%	-5%	2.9%	11
Fc1cnc(N2CCOCC2)nc1N1CCOCC1	2%	-20%	3.9%	7
O=C(NC1CCCc2c1cnn2-c1cc(F)cc(F)c1)c1ccc[n+]([O-])c1 (centres undefined)	-8%	-8%	-0.2%	·
Cc1cc(C)c(C)c(SCC(=O)Nc2oc(C)c3c(C)n[nH]c(=O)c23)c1C	-4%	·	-1.8%	·
O=[N+]([O-])c1cccc(C(=S)N2CCN(c3ccc(F)cc3)CC2)c1	-3%	-7%	2.7%	-2
CC(=O)Nc1ccc(S(=O)(=O)Nc2nc3ccccc3nc2Cl)cc1	-6%	0%	0.2%	·
COc1cc(C=O)ccc1OC(=O)c1cccnc1	4%	3%	-4.5%	·
COc1ccc(CCN2C(=O)N(c3ccc(OC)cc3)C(=O)C2CC(=O)Nc2ccc(OC)cc2)cc1 (centres undefined)	-12%	0%	-2.5%	-4
CCOCC(=O)Nc1c(C(=O)OCC)oc2ccccc12	13%	-10%	3.2%	-21
CC12CC3CC(C)(C1)CC(C(=O)NNC(=O)c1ccncc1)(C3)C2	-9%	0%	-0.5%	·
CCOCCN(C(=O)c1ccccc1Cl)c1ccccc1	15%	3%	-1.2%	-2
CSc1ccccc1NC(=S)Nc1cc(C)cc(C)c1	11%	-2%	0.1%	3
Cc1c(Cl)cccc1NC(=S)NCCN1CCOCC1	4%	-4%	1.6%	6
Cc1ccc(C(C)n2cc(C(=O)NCc3ccncc3)nn2)cc1 (centres undefined)	-14%	-2%	2.6%	9
O=C(c1ccc([N+](=O)[O-])o1)N1CCN(Cc2ccccc2)CC1	-7%	9%	-1.1%	·
Cc1nc(N2CCN(C(=O)c3cnccn3)CC2)c2c3c(sc2n1)CC(C(C)(C)C)CC3 (centres undefined)	5%	1%	0.8%	·
Cn1c(=O)n(C)c2cc(NC(=O)COc3ccc(F)cc3)ccc21	-9%	9%	2.3%	·

Taken from above for reference:
Compound	Rango release inh	miR-21 reporter	Rango complex inh	GLA inh pH 4.5
Cc1csc(N2CCN(c3cc4c(cc3Cl)nc(-c3ccncc3)n4CCCN3CCCC3)CC2)n1	-14%	3%	?	·
Cc1cc(C)c2nc(N3CCCC(C(=O)N4CCC(C(N)=O)CC4)C3)sc2c1 (centres undefined)	-10%	-8%	-0.9%	2

Carrying on.
Compound	Rango release inh	miR-21 reporter	Rango complex inh	GLA inh pH 4.5
O=S(=O)(c1ccc2c(c1)OCCO2)N1CCC(n2nnc3cc(C(F)(F)F)ccc32)CC1	0%	18%	-0.8%	0
COc1ccc(OC)c2c(C)cc(N3CCN(C(=O)c4ccc(F)cc4)CC3)nc12	8%	-10%	1.6%	8
COc1ccc(C2CC(C(F)(F)F)n3nc(C(=O)O)cc3N2)cc1OC (centres undefined)	8%	-1%	2.1%	4
Cc1ccc(-n2ncc3c2CCCC3NC(=O)CCc2cnccn2)cc1C (centres undefined)	1%	1%	?	·
O=C1c2ccccc2C(=O)N1CCCOc1ccccc1	21%	-45%	-1.8%	-3
C=C(C)COc1ccc(-c2[nH]ncc2-c2ccc(OC)cc2)c(O)c1	-2%	26%	2.4%	-12
Cc1ccccc1OCc1occc1C(=O)Nc1cccc(-n2cnnn2)c1	-16%	22%	-6.3%	·
Cc1cccc(OCC(=O)NNC(=O)CCCCC(=O)NNC(=O)COc2cccc(C)c2)c1	-9%	2%	?	·
COc1ccc(CNC(=O)CCc2nc(-c3ccccc3F)no2)c(OC)c1	1%	-2%	?	-4
COC(=O)Cn1c(=O)c2c(nc3n2CC(C)CN3CCc2ccccc2)n(C)c1=O (centres undefined)	-4%	8%	-6.0%	·
CCc1nc2sc3ccccc3c(=O)c2c(=O)n1Cc1ccc(OC)cc1	3%	-3%	-0.7%	-4
CN(C)S(=O)(=O)c1ccc2oc(SCC(=O)c3c(N)n(C4CC4)c(=O)[nH]c3=O)nc2c1	-3%	·	2.6%	·
Cn1c(SCC(=O)Nc2cccc(S(=O)(=O)NC3=NCCCCC3)c2)nnc1-c1ccncc1	0%	-2%	1.2%	-10
CCCc1c(C(=O)Nc2ccc(F)cc2C)cnn1-c1ccccc1	-1%	18%	-1.4%	-13
CC(Sc1nc2ccccc2c(=O)n1CCc1ccc(S(N)(=O)=O)cc1)C(=O)NC(N)=O (centres undefined)	-22%	7%	-0.3%	·
COc1ccc(NC(=O)CCN2C(=O)c3ccc([N+](=O)[O-])cc3C2=O)c(OC)c1	19%	0%	-0.1%	-2
COc1ccccc1NC(=O)c1cc2c(CO)cnc(C)c2oc1=Nc1ccc(OC)c(OC)c1	0%	-3%	0.0%	·
CCN(c1ccccc1C)S(=O)(=O)c1cc2c3c(c1)CCC(=O)N3CCC2	18%	4%	-0.9%	·
COCCNC(=S)N1CCN(C(c2ccccc2)c2ccccc2)CC1	0%	-3%	0.1%	·
O=C(/C=C/c1ccco1)Nc1nc(-c2ccccn2)cs1	9%	-18%	0.7%	-1
Cc1cc(N/N=C/c2ccc(O)cc2O)nc(-c2ccccc2O)n1	?	9%	-3.8%	1
CN(c1ccccc1)S(=O)(=O)c1cccc(NC(=O)CSc2nnc(N)s2)c1	30%	11%	-1.8%	-4
CCOCCCN(C(=O)c1ccco1)C(C(=O)NC1CCCC1)c1ccc(OC)cc1 (centres undefined)	-8%	0%	0.9%	·
COc1ccc(CN(CC(O)COCc2ccccc2)S(=O)(=O)c2ccccc2Br)cc1OC (centres undefined)	19%	·	3.3%	·
Cc1cccc(-n2c(=O)[nH]c3c(C(N)=O)nc(CC(C)C)nc32)c1	-3%	-3%	7.7%	27
c1coc(-c2nnc3sc(-c4cccs4)nn23)c1	2%	-31%	-2.9%	1
NC(=O)CC[C@H](NC(=O)c1ccc(F)cc1)C(=O)OCC(=O)Nc1c(F)c(F)c(F)c(F)c1F	0%	-13%	-4.2%	-1
CN(C)C(CNC(=O)c1cccc(S(=O)(=O)N2CCN(c3ccc(F)cc3)CC2)c1)c1ccccc1 (centres undefined)	1%	·	-0.8%	·
CCOCCCNC(=O)CCc1ccc(S(=O)(=O)Nc2ccc(C)cc2)cc1	-8%	-7%	2.3%	-2
CC(C)CN(C(=O)COC(=O)CCc1nc2ccccc2s1)c1c(N)n(Cc2ccccc2)c(=O)[nH]c1=O	2%	·	-1.0%	·
O=C(CSc1nc2ccccc2o1)Nc1ccccc1N1CCOCC1	8%	1%	-3.7%	-4
COc1cccc(-c2nc(CS(=O)(=O)CC(=O)Nc3ccccc3Cl)c(C)o2)c1	-10%	-2%	-1.3%	·
COc1ccccc1N1CCN(C(=O)Cn2ncc3c([nH]c4ccccc43)c2=O)CC1	7%	1%&-1%	2.4%	·
Cn1c2c(c(=O)n(C)c1=O)CN(Cc1ccco1)CN2	-2%	-2%	2.5%	5
CCOC(=O)N1CCC(NC(=O)CS(=O)Cc2nc(-c3ccc(C)cc3)oc2C)CC1 (centres undefined)	3%	0%	1.1%	·
CCOC(=O)c1c(C)[nH]c(C(=O)COC(=O)c2c(CC)noc2C)c1C	17%	·	5.8%	·
O=C1NC(=S)SC1=C1CCCCCC1	-1%	-12%	?	-4
O=C(NCc1ccccc1F)C1CCCN1C(=O)NCc1ccccc1 (centres undefined)	-3%	-3%	-0.1%	3
CC1=NNC(=O)C1C(c1ccccc1)C(C#N)C#N (centres undefined)	-5%	0%	-2.5%	-8
COc1cccc(/C=N/Nc2ccc(C(=O)O)cc2)c1O	20%	?	-0.9%	-6[21.1 µM]
CCCSCCCNC(=O)Cn1nc(CC)n2c(cc3c(OC)cccc32)c1=O	21%	-1%	-1.0%	·
N#CCSc1ccccc1NC(=O)CN1C(=O)C(=O)N(Cc2ccccc2)C1=O	1%	·	2.9%	·
CCn1c(SCC(=O)Nc2cc(C)c(Cl)cc2OC)nnc1-c1ccco1	-5%	-3%	-7.9%	-9
O=C(NC1CCCC1)C(c1ccc(F)cc1)N(C(=O)c1csnn1)C1CCCC1 (centres undefined)	-4%	0%	-5.1%	·
Clc1ccccc1-c1nc(-c2cccnc2)no1	6%	-34%	2.0%	-2
N#Cc1ccccc1COC(=O)CCN=C1NS(=O)(=O)c2ccccc21	8%	·	1.8%	·
COc1ccc(/C=N/Nc2ccc([N+](=O)[O-])cc2)cc1Cn1cc([N+](=O)[O-])cn1	?	-5%	?	-1
CCn1cc(C(=O)N(C)Cc2ccc(OC(F)F)cc2)c(=O)c2ccc(C)nc21	-10%	6%	-0.3%	·
COc1ccc(NC(=O)CSc2nc3ccncc3[nH]2)c(OC)c1	1%	2%&3%	-1.5%	·
O=C(Nc1nc2ccccc2[nH]1)C1CCCO1 (centres undefined)	-4%	-31%	-0.6%	-3
Cc1cc(C(=O)Cn2nnc(-c3ccc(Cl)cc3)n2)c(C)n1CC1CCCO1 (centres undefined)	-13%	6%	-1.0%	-9
O=c1c2ccccc2nc2sc(Nc3cccc(Cl)c3)nn12	0%	·	-1.9%	·
COc1cc([N+](=O)[O-])ccc1NC(=O)CN(C)C	13%	0%	-2.9%	-4
O=C(COC(=O)/C=C/c1ccccc1[N+](=O)[O-])NC(=O)NC1CCCC1	4%	·	-2.5%	·
O=C(O)c1ccc(-c2nc3ccccc3[nH]2)cc1	0%	-9%	8.3%	-8
CC(=O)NN1C(=O)/C(=C/c2ccc(C(C)C)cc2)SC1=S	7%	-2%	-2.3%	-11
Cc1cc(C)c(C(=O)N2CCCC(C(=O)c3cc(F)ccc3F)C2)o1 (centres undefined)	-4%	6%	6.8%	2
CN1/C(=C/c2cc[n+](C)c3ccccc23)C=Cc2ccccc21	-2%	?	-1.0%	-2
N#Cc1cccn1-c1nccs1	0%	1%	0.7%	-12
Oc1ccccc1C1=Nc2ncnn2C(c2ccccc2)C1 (centres undefined)	-27%	-2%	?	-11

Next part.
Compound	Rango release inh	miR-21 reporter	Rango complex inh	GLA inh pH 4.5
COc1ccc(Nc2ccc([N+](=O)[O-])cn2)cn1	-21%	2%	-1.3%	·
CCCC1N2CC3([N+](=O)[O-])CN1CC([N+](=O)[O-])(C2)C3(C)C (centres undefined)	16%	2%	0.0%	8
CC1CCc2c(nc3ncnn3c2Nc2ccc(OC(F)(F)F)cc2)C1 (centres undefined)	8%	-5%	-0.9%	-1
CNc1oc(-c2cccc3ccccc23)nc1C#N	0%	-45%	-2.1%	15
N#CCCN(C(=O)COC(=O)c1nc(Cl)ccc1Cl)c1ccccc1	30%	·	4.0%	·
CCN1CCN(c2ccc(S(=O)(=O)N3CCOCC3)cc2NC(=O)C(C)Oc2ccc(Cl)cc2)CC1 (centres undefined)	-1%	·	0.8%	·
CCNc1c([N+](=O)[O-])ncn1C	-3%	-7%	-0.5%	-2
O=C(NCC1CCCO1)c1c(O)c2c([nH]c1=O)CCCC2 (centres undefined)	0%	-9%	-2.4%	-3
CCCC(=O)c1cc2c(cc1NC(=O)c1ccccc1F)OCCO2	-11%	4%&0%	2.0%	4
